# From PubChem BioAssay
# miR-21 reporter – raises the signal of a miR-21 reporter | 340,000 tested, under 10 active | Potency, µM (series often up to 38.3 µM), without a hit: at the top dose reporter change, positive = more light | HeLa miR-21 FLuc reporter, luciferase, 48 h; active = well fitted rising curve with a large enough effect; inconclusive = small, poorly fitted or top-dose-only effect; inactive = no such curve, though single readings can be large or run the other way;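 note: % of control where 0% means no effect; miR-21 action dims this reporter so a rising signal means less miR-21 action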
#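 HeLa cells stably expressing CMV-driven firefly luciferase with a downstream miR-21 binding sequence, endogenously expressing miR-21, were treated with titrations (up to about 40uM final) for 48 hours at 37 degree Celsius. Luciferase luminescence was read after lysis.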
# Rango complex inh – prevents formation of the Rango-importin beta complex | Q14974 | Rango CFP/YFP FRET sensor + importin beta, 45 min | Potency, µM (doses to about 92.2 µM), inactives show top-dose inhibition of complex formation | 0.031% of 340,000 active | AID 540263; active = rising FRET ratio curve, often small or poorly fitted; inconclusive = mostly compound fluorescence or quenching in the first reads; inactive = flat curves in all reads;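 note: potency is the fitted concentration of half-maximal effect; 0% = DMSO wells and 100% = buffer wells lacking importin beta; nearly all actives have a fitted effect of over 15% in size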
#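 FRET biosensor (snurportin 1 IBB flanked by EYFP and cerulean), 50 nM, with compound 5 min, then 0.125 microM importin beta in PBS, 1 mM DTT, 0.02% Tween-20, 0.1% BSA. CFP/YFP ratio read after 45 min at room temperature; pre-read flags interference.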
# GLA inh pH 4.5 – alpha-galactosidase A (human) inhibition, pH 4.5. activity change, negative = inhibition, % at 105 µM. P06280. purified enzyme, 4-MU-alpha-Gal fluorescence, pH 4.5. AID 1467. 230,000 tested, under 10 active; inconclusive = small, poorly fitted or top-dose-only inhibition, or a rising curve; inactive = flat fitted curve, though single readings scatter; no compound was filed as active;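 note: 0% = full activity with enzyme and -100% = basal without enzyme; dose as in the result columns while the protocol names 77 µM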
# Target sequence (P06280 whole entry, looked up): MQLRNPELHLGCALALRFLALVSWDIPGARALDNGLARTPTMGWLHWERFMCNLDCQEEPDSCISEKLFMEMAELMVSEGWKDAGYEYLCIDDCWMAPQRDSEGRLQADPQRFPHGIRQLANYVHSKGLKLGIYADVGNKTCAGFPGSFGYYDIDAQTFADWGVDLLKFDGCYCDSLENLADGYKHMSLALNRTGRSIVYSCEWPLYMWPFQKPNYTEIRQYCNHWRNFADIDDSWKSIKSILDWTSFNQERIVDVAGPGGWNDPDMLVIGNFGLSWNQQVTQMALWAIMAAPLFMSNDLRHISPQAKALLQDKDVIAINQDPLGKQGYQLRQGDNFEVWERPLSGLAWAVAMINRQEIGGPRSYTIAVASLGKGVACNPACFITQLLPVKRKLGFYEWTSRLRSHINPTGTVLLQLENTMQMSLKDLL
# Rango release inh – inhibition of RanGTP-driven Rango-importin beta dissociation. Biochemical FRET Rango-importin beta, RanGTP-induced dissociation. Potency, µM (series often up to 46.1 µM), without a hit: at the top dose activity change, negative = inhibition. 0.071% of 340,000 active; active means falling FRET ratio curve, often poorly fitted, with flat reads before Ran was added; inconclusive means other falling curves, or compound fluorescence or quenching; inactive means flat or rising ratio curve;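 note: potency is the fitted concentration of half-maximal effect; % of control where 0% means no effect; nearly all actives have a fitted effect of over 45% in size; -100% = wells without RanGTP and RCC1; the record marks most hits as doubtful in a second field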
#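 Compounds preincubate 5 min with complex of recombinant Rango and importin beta in PBS with 1 mM DTT. Ran (0.6 uM) loaded with 2 mM GTP plus 0.2 uM RCC1 starts dissociation; FRET is recorded 45 min later.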
# * = called active by the depositor; u = inconclusive; x = not tested or not shown; & = joins results of further samples. This is a subset; the hit share may differ from the screen's.
SMILES,miR-21 reporter,Rango complex inh,GLA inh pH 4.5,Rango release inh
COc1ccc(C2N(Cc3ccccc3)CC(=O)N2/N=C(\C)c2ccccc2)cc1 (stereo unspecified),-28%,0.1%,-9,1%
CN(C)CCCCOc1ccccc1-c1ccccc1,-5%,2.8%,8,0%
COC(=O)Cn1c(C)nc2ccccc21,1%,-2.0%,5,3%
O=C(NCc1ccccc1)c1ccc(S(=O)(=O)N2CCCC2)cc1,-3%,2.5%,9,0%
Cc1cc(=O)oc2c(N)c(O)ccc12,-21%,-1.6%,-1,1%
c1cncc(-c2nc3ccccc3s2)c1,-41%,0.5%,17,2%
O=C(NC1CCCC1)c1cccc(S(=O)(=O)N2CCCC2)c1,x,2.1%,x,5%
CN(C(=O)c1ccc(NC(=O)Cc2ccc(NC(=O)C3CCCN(S(=O)(=O)c4cccc([N+](=O)[O-])c4)C3)cc2)cc1)C1CCCC1 (stereo unspecified),x,6.7%,x,u
OC(COCc1ccccc1)COCc1ccccc1,x,4.7%,x,-4%
CC(C)(C)C(=O)NC(C(N)=O)=C(Cl)Cl,0%,0.5%,-8,5%
CCc1ccc(NC(=O)C2CCCN(S(=O)(=O)c3cnc[nH]3)C2)cc1 (stereo unspecified),-8%,1.4%,x,12%
CCCCN(CC)S(=O)(=O)c1ccccc1,4%,-0.8%,-15,-9%
O=C(N/N=C/c1ccccn1)c1ccc(Br)o1,-13%,-1.4%,-29,2%
Clc1cccc(CN2CCN(c3ncccn3)CC2)c1Cl,19%,-5.1%,x,35%
CC(C)(C)NC(=O)C1CCCN(S(=O)(=O)c2ccc(-n3cnnn3)cc2)C1 (stereo unspecified),1%,-1.6%,x,-2%
O=C(CN1CCN(c2ccccc2)CC1)NCc1ccc(F)cc1,-1%,0.4%,x,-2%
Cc1ccc(S(=O)(=O)N(Cc2ccc(Cl)cc2)c2ccccc2C(=O)O)cc1,1%,1.1%,x,33%
CC1CC2(CCCCC2)N2C(=O)C(=O)c3cccc1c32 (stereo unspecified),-2%,4.2%,4,6%
N#Cc1c(NCCCO)nc(-c2ccccc2)c2c1CCCC2,-18%,-0.4%,5,-11%
CC(=NCc1ccccc1)C1=C(O)COC1=O,-3%,-2.5%,1,-9%
Cn1c(=O)c2c(SCC(=O)N3CCCc4ccccc43)nc(C3CC3)nc2n(C)c1=O,-1%,-4.1%,-1,23%
CCC(C)(C)NC(=O)c1ccc2c(c1)N(CC(=O)NC1CCCC1)C(=O)C(C)(C)O2,3%,2.5%,x,-7%
CCC(C)n1c(SCC(=O)NC2CCCC2)nc2ccccc2c1=O (stereo unspecified),x,2.5%,x,33%
CC(Oc1ccc2c3c(c(=O)oc2c1)CCC3)C(=O)NCC1CCC(C(=O)O)CC1 (stereo unspecified),-28%,-1.1%,x,3%
C=CCn1c2ccccc2c(=O)c2cc(C#Cc3cc(OC)cc(OC)c3)ccc21,x,u,x,u
# Next compounds follow.
SMILES,miR-21 reporter,Rango complex inh,GLA inh pH 4.5,Rango release inh
O=C(CSc1nnc(C2CC2)n1C1CC1)c1cccs1,x,-3.3%,x,1%
COc1ccc(-c2cc(C(=O)NCCc3ccccc3)no2)cc1OC,-12%,-2.9%,3,-10%
Cc1nnc(NC(=O)CSc2nc3c(c(=O)n2CCc2ccccc2)SC(C)C3)s1 (stereo unspecified),-2%,-1.8%,-6,9%
N#Cc1cnn2c(-c3ccc(Cl)cc3Cl)ccnc12,-1%,-1.4%,-8,-11%
Cc1cccn2c(=O)c(/C=C(\C#N)S(=O)(=O)c3ccccc3)c(N3CCN(c4ccccc4)CC3)nc12,4%,1.6%,x,-4%
O=Cc1ccc(OCC(=O)Nc2ccccc2C(F)(F)F)cc1,-23%,-0.5%,9,15%
O=C(COC(=O)c1ccccc1O)NCCc1c[nH]c2ccccc12,x,0.2%,x,-13%
COc1ccc(NC(=O)C(=O)NCCN2CCN(C(=O)c3cccs3)CC2)cc1,-3%,1.8%,2,-7%
C#CCn1c(=NC(=O)c2cc(Cl)sc2Cl)sc2cc(S(N)(=O)=O)ccc21,-3%,5.6%,-6,14%
O=c1c2cc(N3CCOCC3)ccc2[nH]c(=S)n1CCN1CCCC1,-7%,u,-16,-2%
Cc1ccc(Cn2ccc(NC(=O)c3cc(-c4cccs4)on3)n2)cc1,-7%,-1.1%,3,-3%
CC(C)c1ccc(/C=C2\SC(N3CCCC3)=NC2=O)cc1,-28%,1.9%,0,-8%
CCCc1nc2ccc(NC(=O)c3ccco3)cc2c(=O)n1Cc1ccc(Cl)cc1,-19%,u,-27,-1%
CCCNC(=O)CS(=O)(=O)c1ccccc1,-1%,2.8%,x,-15%
Cc1nn(-c2ccccc2[N+](=O)[O-])c(=O)c2ccccc12,-20%,-0.3%,5,1%
COc1ccc(Cl)cc1NC(=O)CNc1ccc(F)cc1C,-6%,-0.5%,0,-9%
CC1CCCC(C)N1C(=O)CSc1ccc(-c2ccc3c(c2)OCCO3)nn1 (stereo unspecified),-15%,0.3%,x,6%
CCOc1ccc(C(=O)Nc2c(C(N)=O)oc3ccccc23)cc1,-15%,2.2%,0,-4%
COc1ccc(-c2nc3ccccc3n2OC(C)C(=O)O)cc1 (stereo unspecified),-31%,0.5%,-7,-8%
COc1ccc(NC2CCCN(C(=O)c3cc(CC(C)C)nc(N)n3)C2)cc1 (stereo unspecified),-2%,-0.5%,x,1%
Cc1c(C(C)C[C@H](C)O)oc(=O)c2c1Oc1c(C)c(C(C)C[C@H](C)O)oc(=O)c1C2 (stereo partly specified),x,u,x,-23%
CC/C(Cc1ccccc1)=N/NC(=O)CCn1nnc2ccccc21,-5%,0.2%,-1,1%
COc1ccc(-n2nnnc2SCC(=O)NC2CCS(=O)(=O)C2)cc1 (stereo unspecified),x,2.3%,x,0%
CC1CCCC(C(=O)OCc2ccccc2)N1 (stereo unspecified),-1%,-3.5%,0,46%
CSCCC(NC(=O)COc1ccccc1)C(=O)N(C)Cc1ccc(F)cc1 (stereo unspecified),x,5.5%,x,12%

# Of the compounds above, 8 contain an aryl methoxy group:
SMILES,miR-21 reporter,Rango complex inh,GLA inh pH 4.5,Rango release inh
COc1ccc(C2N(Cc3ccccc3)CC(=O)N2/N=C(\C)c2ccccc2)cc1 (stereo unspecified),-28%,0.1%,-9,1%
C=CCn1c2ccccc2c(=O)c2cc(C#Cc3cc(OC)cc(OC)c3)ccc21,x,u,x,u
COc1ccc(-c2cc(C(=O)NCCc3ccccc3)no2)cc1OC,-12%,-2.9%,3,-10%
COc1ccc(NC(=O)C(=O)NCCN2CCN(C(=O)c3cccs3)CC2)cc1,-3%,1.8%,2,-7%
COc1ccc(Cl)cc1NC(=O)CNc1ccc(F)cc1C,-6%,-0.5%,0,-9%
COc1ccc(-c2nc3ccccc3n2OC(C)C(=O)O)cc1 (stereo unspecified),-31%,0.5%,-7,-8%
COc1ccc(NC2CCCN(C(=O)c3cc(CC(C)C)nc(N)n3)C2)cc1 (stereo unspecified),-2%,-0.5%,x,1%
COc1ccc(-n2nnnc2SCC(=O)NC2CCS(=O)(=O)C2)cc1 (stereo unspecified),x,2.3%,x,0%

# Following part:
SMILES,miR-21 reporter,Rango complex inh,GLA inh pH 4.5,Rango release inh
COc1ccccc1NS(=O)(=O)c1cccc(C(=O)NCC(c2ccco2)N(C)C)c1 (stereo unspecified),x,0.4%,x,6%
O=C1NC(c2ccccc2)=C(c2nc3ccccc3s2)C(c2ccc(F)cc2)N1 (stereo unspecified),28%,-0.8%,-9,18%
O=C(c1cnc2n(c1=O)CCS2)N1CCN(c2ccccc2F)CC1,-3%,-0.3%,2,6%
CCNc1nc(C)c2cc(Br)c(=O)n(CC)c2n1,-17%,-4.2%,u,-2%
Cc1ccccc1N1CCN(C2CCCN(C(=O)c3ccc(Cl)s3)C2)CC1 (stereo unspecified),9%,-0.3%,x,-3%
Cc1noc(NS(=O)(=O)c2ccc(NC(=O)c3cccc(S(=O)(=O)N(C)c4ccccc4)c3)cc2)c1C,x,-0.3%,x,9%
COC(=O)CCCCCCCCCCN1CCCCC1,-4%,2.3%,-2,3%
COC(=O)c1cccc(NC(=O)CC2C(=O)NCCN2C(=O)Nc2cc(C)cc(C)c2)c1 (stereo unspecified),-8%,-0.3%,x,-2%
O=C(NCCS(=O)(=O)N1CCN(c2ccccc2)CC1)c1cccs1,x,1.5%,x,6%
O=c1[nH]c2ccccc2c2oc(CCl)nc12,4%,5.9%,-2,2%
O=C(O)c1ccc(NN=Cc2cc(=O)[nH]c(=O)[nH]2)cc1,x,u,x,-19%
COc1cccc(NC(=O)COC(=O)C2CCCCC2)c1,x,2.7%,x,-3%
COc1ccc(CNC(=O)C2CCN(C(=O)[C@@H]3Cc4ccccc4CN3)CC2)cc1,2%,0.9%,x,11%
COc1ccc(S(=O)(=O)N(C)C[C@@H]2Oc3ccc(NS(=O)(=O)c4cn(C)cn4)cc3C(=O)N([C@@H](C)CO)C[C@@H]2C)cc1,x,0.0%,x,1%
CSc1nc(NCC(C)C)c2c3c(sc2n1)CN(C)CC3,-2%,u,14,u
COc1nc(-c2ccccc2)c2c(c1C#N)CC(C)(C)OC2,-12%,1.7%,-1,-10%
N#Cc1nc(COc2ccc(Br)cc2)oc1N1CCCC1,-13%,-1.7%,9,-1%
Cc1ccc(Cl)cc1NC(=S)N(CCCN1CCN(C)CC1)Cc1ccco1,13%,2.9%,4,2%
CCOC(=O)C1CCN(C(=O)Cn2cc(C#N)c3ccccc32)CC1,0%,0.1%,-1,1%
O=C(O)CCC(=O)Nc1ccc(Br)cc1C(=O)c1ccccc1Cl,-2%,5.7%,0,5%
C=CCN1CCc2c(cc(O)c(O)c2Cl)C(c2ccccc2)C1 (stereo unspecified),-3%,-0.5%,-4&-12,-1%
Cc1sc2nc(SCC(=O)Nc3c(C)n(C)n(-c4ccccc4)c3=O)n(C)c(=O)c2c1C,4%,4.2%,3,46%
O=C1c2ccccc2C2=Nc3ccccc3SC(c3cccc(F)c3)C12 (stereo unspecified),28%,2.4%,-7,-7%
O=c1c2ccccc2nnn1CSc1nnnn1-c1ccccc1,-47%,-3.7%,7,1%
CC1CC(C)CN(C(=O)COC(=O)c2nn(C)c(=O)c3ccccc23)C1 (stereo unspecified),x,-1.8%,x,0%
# Later entries:
SMILES,miR-21 reporter,Rango complex inh,GLA inh pH 4.5,Rango release inh
Cc1ccc(N(CC(=O)NCCc2ccccc2)S(=O)(=O)c2c(C)noc2C)cc1,1%,-4.0%,1,-2%
Cc1ccc(-n2c(C)cc(C(=O)CSc3nnc4ccccn34)c2C)cc1,-25%,-0.2%,5,0%
Cc1ccc(SCCC(=O)N2CCCC2)cc1,-59%,-6.1%,-1,0%
O=C(CN1C(=O)COc2ccccc21)NCCCN1CCCCC1,-2%,-1.4%,x,7%
CCc1ccc(C(=O)N2CCC(c3nc4ccccc4s3)CC2)cc1,-2%,0.6%,-4,-8%
CCCC(=O)NC(C)C(c1cccs1)N1CCN(c2ccccc2)CC1 (stereo unspecified),3%,-2.8%,-2,-4%
C/C=C(\C)C(=O)Nc1cccc(C2=NOC3(C2)C[C@@H](C(N)=O)N(C(=O)/C(C)=C/C)C3)c1 (stereo partly specified),-1%,-1.0%,0,-9%
NC(N)=NCC(O)CN(c1ccccc1)c1ccccc1 (stereo unspecified),6%,2.7%,-1,3%
CN(C)C(CNC(=O)c1ccc(NS(=O)(=O)c2ccc(F)cc2)cc1)c1ccco1 (stereo unspecified),x,0.5%,x,4%
CCn1ncc(Br)c1C(=O)Nc1ccc(F)c([N+](=O)[O-])c1,-26%,5.0%,-6,11%
CCOC(=O)COc1ccc(S(=O)(=O)NCc2ccncc2)cc1,2%,-0.9%,3,8%
CCCS(=O)(=O)N1CCCC(C(=O)NCCCN2CCN(c3ccc(F)cc3)CC2)C1 (stereo unspecified),-6%,0.9%,5,-3%
O=C(Cc1csc(N2CCOCC2)n1)N/N=C/c1ccc(F)cc1,0%,0.8%,3,9%
Cc1c(NC(=O)c2cc(-c3ccc(Cl)cc3)on2)c(=O)n(-c2ccccc2)n1C,10%&0%,u,x,2%
Cc1cccc(NCN2C(=O)c3ccccc3C2=O)c1,-1%,-2.0%,8,-3%
O=C(N/N=C/c1ccccc1O)c1cccc(C(F)(F)F)c1,u,-0.5%,-9,-20%
CN(C(=O)COC(=O)c1ccccc1NCc1ccco1)c1c(N)n(Cc2ccccc2)c(=O)[nH]c1=O,x,-2.0%,x,-3%
